Vaccinia mCherry: qHTS for Stage-Specific Inhibitors of Vaccinia Orthopoxvirus: mCherry Reporter Primary qHTS; Vaccinia virus mCherry reporter infection, fluorescence; about a quarter of the inactives have no number; Potency, µM (titrated, usually from 36.5 µM), inactives show at the top dose activity change, negative = inhibition, hits mostly inhibitors; hit rate 0.63% among 310,000; AID 720579, 2013; active = well fitted inhibition curve with a large enough effect; inconclusive = small, poorly fitted or top-dose-only effect; inactive = no such curve, though single readings can be large or run the other way; tested in A549 cells; further: nearly all actives have a fitted effect of over 35% in size; inactives centre near -10
VACV Venus inh: qHTS for Stage-Specific Inhibitors of Vaccinia Orthopoxvirus: Venus Reporter Primary qHTS | AID 720580, 2013 | Vaccinia virus Venus reporter expression, fluorescence | Potency, µM (top dose mostly 36.5 µM), without a hit: at the top dose activity change, negative = inhibition, most hits filed as inhibitors | hit rate 0.46% among 330,000; active means well fitted inhibition curve with a large enough effect; inconclusive means small, poorly fitted or top-dose-only effect; inactive means no such curve, though single readings can be large or run the other way; tested in A549 cells; further: nearly all actives have a fitted effect of over 30% in size; inactives centre near -10
* = called active by the depositor; & = joins results of further samples; [ ] = remark or other dose. On the % scale 0 is the no-effect control and ±100 the full control effect; potency means the concentration at half of the fitted maximal effect.

What do the screens show for `COc1cccc(NC(=S)/C(=C(\[O-])c2ccc([N+](=O)[O-])cc2)[n+]2ccccc2)c1`?
Vaccinia mCherry: -22%; VACV Venus inh: -7%

How did COc1ccc(CN2C=C3C(=O)C(C)(OC(=O)CCc4ccccc4)C(=O)C=C3C=C2c2ccc(C#N)cc2)cc1 (configuration not stated) do in these assays?
Vaccinia mCherry: 21%; VACV Venus inh: -3%

What do the screens show for `CCOC(=O)c1c(NC(=O)c2cc(CC)on2)sc(C(C)=O)c1C`?
Vaccinia mCherry: -11%[7.34 µM]; VACV Venus inh: -10%[7.34 µM]

How did Cc1cccc(NS(=O)(=O)c2ccc([N+](=O)[O-])cc2)n1 do in these assays?
Vaccinia mCherry: -14%; VACV Venus inh: -1%

What do the screens show for `Cc1ccc(C)c(OCC(=O)N2CCN(Cc3ccc4c(c3)OCO4)CC2)c1`?
Vaccinia mCherry: -1%; VACV Venus inh: -8%

What do the screens show for `CCOc1ccccc1C(=O)N1CCc2cc(OC)c(OC)cc2C1COc1ccc(OC)cc1` (configuration not stated)?
Vaccinia mCherry: 3%; VACV Venus inh: 4%

What do the screens show for `Cc1ccc(NC(=S)/N=C(\N)Nc2nc(C)c3ccccc3n2)cc1C`?
Vaccinia mCherry: -12%; VACV Venus inh: -23%

Results for COc1ccc(NC(=O)CSc2nncc(=O)n2N)cc1OC ?
Vaccinia mCherry: -9%; VACV Venus inh: -3%

What do the screens show for `O=C(CN1CCN(c2ccccc2F)CC1)Nc1nnc(C(F)(F)F)s1`?
Vaccinia mCherry: -13%; VACV Venus inh: -9%

What do the screens show for `COc1ccc(NC(=O)CN(C)S(=O)(=O)c2cnc[nH]2)cc1Cl`?
Vaccinia mCherry: -8%; VACV Venus inh: -6%&-10%

How did CCN(CC)S(=O)(=O)c1ccc(OC)c(NC(=O)c2cc([N+](=O)[O-])ccc2Cl)c1 do in these assays?
Vaccinia mCherry: -11%; VACV Venus inh: -13%

Results for COC(=O)C1=C(C)N(Cc2ccccc2)C(=NCc2ccccc2)N[C@H]1c1ccccc1 ?
Vaccinia mCherry: -25%; VACV Venus inh: inconclusive

Results for COc1ccc(C)cc1NC(=O)C(OC(=O)c1cnccn1)c1ccccc1 (configuration not stated) ?
Vaccinia mCherry: inactive; VACV Venus inh: -17%

What do the screens show for `Cc1ccc(S(=O)(=O)Nc2cc(C(=O)N3CCC4(CC3)OCCO4)ccc2N2CCCCC2)cc1`?
VACV Venus inh: -7%

What do the screens show for `CC(=O)Nc1ccc(NC(=O)c2oc3ccc4c(c3c2C)C(=O)CC(C)(C)O4)cc1`?
Vaccinia mCherry: -10%; VACV Venus inh: -6%

7 records picked at random from the list so far, as already listed:
Results for COc1ccc(NC(=O)CSc2nncc(=O)n2N)cc1OC ?
Vaccinia mCherry: -9%; VACV Venus inh: -3%

How did CCN(CC)S(=O)(=O)c1ccc(OC)c(NC(=O)c2cc([N+](=O)[O-])ccc2Cl)c1 do in these assays?
Vaccinia mCherry: -11%; VACV Venus inh: -13%

What do the screens show for `CCOC(=O)c1c(NC(=O)c2cc(CC)on2)sc(C(C)=O)c1C`?
Vaccinia mCherry: -11%[7.34 µM]; VACV Venus inh: -10%[7.34 µM]

How did Cc1cccc(NS(=O)(=O)c2ccc([N+](=O)[O-])cc2)n1 do in these assays?
Vaccinia mCherry: -14%; VACV Venus inh: -1%

Results for COC(=O)C1=C(C)N(Cc2ccccc2)C(=NCc2ccccc2)N[C@H]1c1ccccc1 ?
Vaccinia mCherry: -25%; VACV Venus inh: inconclusive

What do the screens show for `Cc1ccc(C)c(OCC(=O)N2CCN(Cc3ccc4c(c3)OCO4)CC2)c1`?
Vaccinia mCherry: -1%; VACV Venus inh: -8%

Results for COc1ccc(C)cc1NC(=O)C(OC(=O)c1cnccn1)c1ccccc1 (configuration not stated) ?
Vaccinia mCherry: inactive; VACV Venus inh: -17%

Continued:
How did COc1ccc(N2CCN(C(=O)CCC(=O)N3Cc4ccccc4Oc4ncccc43)CC2)cc1 do in these assays?
Vaccinia mCherry: -25%; VACV Venus inh: -28%

Results for CCCCCCn1c(CNC(=O)c2ccccc2)nc2ccccc21 ?
Vaccinia mCherry: -10%; VACV Venus inh: -1%

How did CN1CCN(c2ccccc2NC(=O)c2ccc(OCc3ccccc3)cc2)CC1 do in these assays?
VACV Venus inh: -24%

What do the screens show for `CC1CCCCC12NC(=S)N(c1ccccc1)N2` (configuration not stated)?
Vaccinia mCherry: -2%[7.34 µM]; VACV Venus inh: -2%[7.34 µM]

How did CCOc1ccc(CC(C(N)=O)C(N)=O)cc1CN(C)C do in these assays?
VACV Venus inh: -11%

How did CCOC(=O)Cc1ccc2sc(-c3ccccc3)nc2c1 do in these assays?
Vaccinia mCherry: -6%; VACV Venus inh: -2%

What do the screens show for `O=C(COC(=O)CCCCCN=C1NS(=O)(=O)c2ccccc21)Nc1ccc(Cl)c(Cl)c1`?
Vaccinia mCherry: inactive; VACV Venus inh: -2%

How did CC(=O)c1ccc(-n2nnnc2SCC(=O)N2CCc3ccccc3C2)cc1 do in these assays?
Vaccinia mCherry: -10%; VACV Venus inh: -9%

How did COc1ccc(CCNC(=O)C(=O)NCC2CCCN2S(=O)(=O)c2ccccc2)cc1OC (configuration not stated) do in these assays?
Vaccinia mCherry: -29%; VACV Venus inh: -24%

Results for CCOc1ccccc1-c1cc(C(=O)N/N=C/c2ccc(O)c(OC)c2)c2ccccc2n1 ?
Vaccinia mCherry: 13µM*; VACV Venus inh: 10%

Results for COc1ccc(-c2cc3c(=O)n(CC(=O)Nc4ccc(Br)c(C)c4)ccn3n2)cc1OC ?
Vaccinia mCherry: -6%; VACV Venus inh: -8%

How did CCC(=O)N/N=C/c1ccc(-c2ccc([N+](=O)[O-])cc2)o1 do in these assays?
Vaccinia mCherry: inconclusive; VACV Venus inh: -8%

What do the screens show for `O=C(c1cccnc1NCc1ccc(F)cc1)N1CCOCC1`?
VACV Venus inh: -10%

How did CC(C)C[C@@H](CNCC(=O)[C@H](Cc1ccccc1)NC(=O)c1[nH]cnc1C(=O)N[C@@H](C)CN)NC(=O)c1nc[nH]c1C(=O)N[C@@H](C)C(=O)O do in these assays?
Vaccinia mCherry: -14%; VACV Venus inh: -2%

What do the screens show for `CCOc1ccc(S(=O)(=O)N2CCC(C(=O)NC3CC3)CC2)cc1C`?
Vaccinia mCherry: -22%; VACV Venus inh: -30%

The last 2 compounds of the section before are carried over, then new ones follow.
How did CC(C)C[C@@H](CNCC(=O)[C@H](Cc1ccccc1)NC(=O)c1[nH]cnc1C(=O)N[C@@H](C)CN)NC(=O)c1nc[nH]c1C(=O)N[C@@H](C)C(=O)O do in these assays?
Vaccinia mCherry: -14%; VACV Venus inh: -2%

What do the screens show for `CCOc1ccc(S(=O)(=O)N2CCC(C(=O)NC3CC3)CC2)cc1C`?
Vaccinia mCherry: -22%; VACV Venus inh: -30%

Results for Cc1ccc(S(=O)(=O)N2CCC(C(=O)Nc3nnc(C)s3)CC2)cc1 ?
Vaccinia mCherry: -6%; VACV Venus inh: 0%

What do the screens show for `Cc1cccc(NC(=O)C2(C)CC3c4ccccc4C2c2ccccc23)c1` (configuration not stated)?
VACV Venus inh: -11%

What do the screens show for `COc1ccc(CCn2c(O)c(C=Nc3cccc(F)c3)c(=O)[nH]c2=O)cc1OC`?
Vaccinia mCherry: 0%; VACV Venus inh: -1%

How did O=[N+]([O-])c1ccc(S(=O)(=O)N2CCN(c3ccc(N4CCOCC4)nn3)CC2)cc1 do in these assays?
Vaccinia mCherry: -16%; VACV Venus inh: -15%

How did Cc1ccc(C(=O)Nc2cccc3ccccc23)o1 do in these assays?
Vaccinia mCherry: -16%[7.34 µM]; VACV Venus inh: -8%[7.34 µM]

How did COCC1CCCN(Cc2cn(Cc3ccccc3)nc2-c2cc3ccccc3o2)C1 (configuration not stated) do in these assays?
Vaccinia mCherry: -21%; VACV Venus inh: -25%

What do the screens show for `Cc1nn(CC(=O)Nc2ccc(OC(F)(F)F)cc2)c(=O)c2c(C)n(-c3ccc(Cl)cc3)nc12`?
Vaccinia mCherry: 2%; VACV Venus inh: -22%

Results for Cc1noc(C)c1-c1ccc(C(=O)NC2CCCCC2)c2occc12 ?
Vaccinia mCherry: 5%; VACV Venus inh: -8%

How did CCCOc1ccc(-c2c(C(=O)N/N=C/c3ccncc3)nnn2-c2nonc2N)cc1 do in these assays?
Vaccinia mCherry: -13%; VACV Venus inh: -9%

How did CC(C)n1c(SCC(=O)c2ccc3c(c2)OCCO3)nc2c1c(=O)n(C)c(=O)n2C do in these assays?
Vaccinia mCherry: -7%; VACV Venus inh: 6%

How did O=C(O)c1cc(S(=O)(=O)NCc2ccco2)c(Cl)cc1Cl do in these assays?
Vaccinia mCherry: -5%[1.46 µM]; VACV Venus inh: -7%

How did COc1ccc(C)cc1NC(=O)C1CCCN(S(=O)(=O)c2cnc[nH]2)C1 (configuration not stated) do in these assays?
Vaccinia mCherry: 14%; VACV Venus inh: -5%

What do the screens show for `CCc1ccc(-c2nc(CN3CCC(C(=O)NCCN(CC)c4ccccc4)CC3)c(C)o2)cc1`?
Vaccinia mCherry: -20%; VACV Venus inh: -16%

What do the screens show for `CC(=O)OCC(OC(C)=O)C(OC(C)=O)C(OC(C)=O)C(OC(C)=O)C(COC(C)=O)OC(C)=O` (configuration not stated)?
Vaccinia mCherry: -3%; VACV Venus inh: -16%

What do the screens show for `COC(=O)C1=C(C)N(Cc2ccccc2)C(=NCCc2ccccn2)N[C@H]1c1cccc(F)c1`?
Vaccinia mCherry: -23%; VACV Venus inh: inconclusive

Results for CN(C)c1ccc(/C=C2/SC(=O)N(CCN=C3NS(=O)(=O)c4ccccc43)C2=O)cc1 ?
Vaccinia mCherry: inconclusive; VACV Venus inh: -14%

Results for CN(CC(=O)Nc1ccccc1N1CCCC1)S(=O)(=O)c1ccc(F)cc1 ?
Vaccinia mCherry: inconclusive; VACV Venus inh: 0%

How did O=S(=O)(c1ccccc1)N1CCN(C(=S)Nc2ccc(Br)cc2)CC1 do in these assays?
Vaccinia mCherry: -17%; VACV Venus inh: -14%

What do the screens show for `COc1cc([N+](=O)[O-])cc(/C=N/NC(=O)CSc2ccccn2)c1O`?
Vaccinia mCherry: inconclusive; VACV Venus inh: -15%

How did CCOc1ccc(NC(=O)CN(C)C(=O)CCCOc2ccc(Cl)c(C)c2)cc1OCC do in these assays?
Vaccinia mCherry: inconclusive; VACV Venus inh: inconclusive

Results for CC(=O)NNC(=O)CN1C(=O)CN=C(c2ccccc2)c2cc(Br)ccc21 ?
Vaccinia mCherry: -14%; VACV Venus inh: -9%

What do the screens show for `CC1=C(C(=O)Nc2ccc(C)cc2Cl)C2(CCCCCC2)OC1=O`?
Vaccinia mCherry: -21%; VACV Venus inh: -12%

How did Cc1ccc2c(=O)cc(C(=O)Nc3ccc(S(=O)(=O)N4CCCCC4)cc3)oc2c1 do in these assays?
Vaccinia mCherry: -8%; VACV Venus inh: -5%

How did CCc1ccc(NC(=O)Cn2cnc3c(=O)n(C)c(=O)n(C)c32)cc1 do in these assays?
Vaccinia mCherry: -11%; VACV Venus inh: -7%

What do the screens show for `O=C(Nc1ccc(Br)cc1)c1ccccc1CC[N+](=O)[O-]`?
VACV Venus inh: -27%

How did Cc1cnc(C(=O)OCc2ccc(Br)cc2)cn1 do in these assays?
Vaccinia mCherry: -3%; VACV Venus inh: -6%

What do the screens show for `CC1(C(=O)Nc2cnc3ccccc3c2)CCN1Cc1cc2ccccc2o1` (configuration not stated)?
Vaccinia mCherry: inactive; VACV Venus inh: 1%

Results for Cc1ccc(-c2noc(CCCC(=O)NC3CCCC3)n2)cc1 ?
Vaccinia mCherry: -16%; VACV Venus inh: -6%

How did C/C(=N\NC(=O)c1nn(C)cc1Br)c1cccc(NC(=O)C2CCCC2)c1 do in these assays?
Vaccinia mCherry: inactive; VACV Venus inh: inconclusive

How did O=C(COC(=O)C1CCN(S(=O)(=O)c2ccc3c(c2)OCCO3)CC1)Nc1cc(C(F)(F)F)ccc1Cl do in these assays?
Vaccinia mCherry: -20%; VACV Venus inh: -12%

Results for COc1cc(OC)cc(C(=O)Nc2ccc(-c3nc4cc(C(C)C)ccc4o3)cc2)c1 ?
Vaccinia mCherry: inconclusive; VACV Venus inh: inconclusive

How did C#Cc1ccc([C@@H]2C=C(C(=O)NCc3ccccc3)O[C@H](OCCCCO)C2)cc1 do in these assays?
Vaccinia mCherry: inactive; VACV Venus inh: -14%

Results for CSc1ncccc1C(=O)OCCCC(=O)c1ccc(F)cc1 ?
Vaccinia mCherry: -17%; VACV Venus inh: -12%

What do the screens show for `CC(CN)(NS(=O)(=O)c1ccccc1)c1ccccc1` (configuration not stated)?
Vaccinia mCherry: inactive; VACV Venus inh: -5%

What do the screens show for `COc1cccc(-c2nc(-c3ccncc3)no2)c1`?
Vaccinia mCherry: -23%; VACV Venus inh: -13%

Results for CCC(C)NC(=O)NC(=O)CSc1nnc(-c2ccccc2F)n1C1CC1 (configuration not stated) ?
Vaccinia mCherry: -22%; VACV Venus inh: -9%

Results for O=C(Nc1ccccc1Br)C(=O)N1CCCC1 ?
Vaccinia mCherry: inactive; VACV Venus inh: -7%

How did O=C(OC(C(=O)NC1CCCCC1)c1ccc(C(F)(F)F)cc1)c1ccco1 (configuration not stated) do in these assays?
Vaccinia mCherry: -4%; VACV Venus inh: -21%

What do the screens show for `CC(Oc1ccc(Cl)cc1)C(=O)N1CCN(C(=O)c2ccco2)CC1` (configuration not stated)?
Vaccinia mCherry: -9%; VACV Venus inh: -7%

Results for COc1ccc(S(=O)(=O)N=Nc2c(O)[nH]c3ccccc23)cc1 ?
Vaccinia mCherry: -8%; VACV Venus inh: 0%

Hits appear at their usual frequency (roughly 0.86% active in at least one column).
